gsp agonist: qHTS for Agonist of gsp, the Etiologic Mutation Responsible for Fibrous Dysplasia/McCune-Albright Syndrome: qHTS; gsp mutant cells, cAMP HTRF, 30 min; control for the full effect not named in the record; AID 624287, 2012; actives 0.13% (n = 340,000); Potency, µM (top dose mostly 76.9 µM), for the others: at the top dose activation (cAMP increase), actives largely listed as activators; active = well fitted activation curve with a large enough effect; inconclusive = small, poorly fitted or top-dose-only effect, or another doubt; inactive = no such curve, though single readings can be large or run the other way; cell line not stated here;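 also: phosphodiesterase inhibitor Ro 20-1724 added with compounds to block cAMP breakdown; potency is read from the fitted curve at half-maximal effect; nearly all actives have a fitted effect of over 60% in size; about a fifth of the inactives were tested at one dose only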
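Cells stably selected in G418 were plated at 2000/well, grown 16-24 hr, then given compounds in DMSO with the PDE inhibitor […] (300 uM solution added) for 30 min at 37C; cAMP was read by HTRF.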
D2 agonist: Beta-Arrestin HTS for Positive Allosteric Modulators of the Human D2 Dopamine Receptor: Agonists | activation, % (no concentration beside the values) | DiscoveRx PathHunter D2 beta-arrestin, luminescence, 90 min; 100% = 57 uM dopamine signal | AID 624465, 2012 | D(2) dopamine receptor (Homo sapiens), P14416 | actives 0.084% (n = 360,000); in the data active = activation above about 40%; inconclusive = about 15% to 40%; inactive = below about 15%; also: compound concentration not given in the record; the text of the record calls up to 30% inactive
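Agonist mode: compounds alone added to overnight-plated D2 PathHunter cells for 90 min at 37 C, with 57 uM final dopamine (EC100) defining full response. Beta-arrestin recruitment detected by chemiluminescent reagent, read after 1 h at ambient temperature.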
Six1-Eya2 inh: qHTS Assay for Inhibitors of the Six1/Eya2 Interaction; Homeobox protein SIX1 (Homo sapiens) + Protein phosphatase EYA2 (Homo sapiens), …; AlphaScreen GST-Six1/His-Eya2 binding, biochemical; stronger effect = lower value; control for the full effect not named in the record; activity change, % (test concentration not listed); actives 0.56% (n = 360,000); AID 651725, 2012; in the data active = activity change below about -65%; inconclusive = about -30% to -65%; inactive = above about -30%; also: % is scaled to controls: 0 for no effect and ±100 for the full control effect; compound concentration not given in the record
Target sequence (O00167 whole entry, looked up): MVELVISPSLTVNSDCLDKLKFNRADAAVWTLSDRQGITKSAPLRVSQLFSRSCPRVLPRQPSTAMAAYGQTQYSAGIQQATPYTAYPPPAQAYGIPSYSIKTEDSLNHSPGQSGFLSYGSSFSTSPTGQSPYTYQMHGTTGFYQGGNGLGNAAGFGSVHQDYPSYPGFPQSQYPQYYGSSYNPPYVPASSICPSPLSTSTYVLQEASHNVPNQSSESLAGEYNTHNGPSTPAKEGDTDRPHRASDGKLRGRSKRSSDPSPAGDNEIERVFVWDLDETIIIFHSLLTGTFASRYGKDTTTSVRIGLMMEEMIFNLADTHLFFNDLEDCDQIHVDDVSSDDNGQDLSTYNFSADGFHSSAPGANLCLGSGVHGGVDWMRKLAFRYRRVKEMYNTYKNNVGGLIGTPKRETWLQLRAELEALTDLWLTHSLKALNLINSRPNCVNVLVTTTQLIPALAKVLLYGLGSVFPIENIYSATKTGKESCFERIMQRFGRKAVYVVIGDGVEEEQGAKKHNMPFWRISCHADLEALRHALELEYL
Target sequence (Q15475 whole entry, looked up): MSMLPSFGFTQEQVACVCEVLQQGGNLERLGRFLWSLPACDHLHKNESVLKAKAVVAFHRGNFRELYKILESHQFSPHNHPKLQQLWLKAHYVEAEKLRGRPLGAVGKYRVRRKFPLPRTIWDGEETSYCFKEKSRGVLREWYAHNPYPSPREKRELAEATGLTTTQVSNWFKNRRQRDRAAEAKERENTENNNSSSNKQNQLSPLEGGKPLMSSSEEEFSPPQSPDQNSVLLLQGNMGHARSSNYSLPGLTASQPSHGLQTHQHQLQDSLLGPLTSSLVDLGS
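Six1/Eya2 binding was read as AlphaScreen signal after compounds were pinned into GST-Six1 plus His-tagged Eya2 (5X stock 250/500 nM) in pH 8.0 Tris/NaCl/TCEP buffer, beads added, then incubated 1 h, 37 C, dark.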
CtBP-E1A blk: qHTS Assay for Inhibitors of the CtBP/E1A Interaction | AlphaScreen GST-E1A/His-CtBP binding, 1536-well; stronger effect = lower value; control for the full effect not named in the record | activity change, % (no concentration beside the values) | actives 0.49% (n = 340,000); in the data active means activity change below about -65%; inconclusive means about -30% to -65%; inactive means above about -30%; also: % is scaled to controls: 0 for no effect and ±100 for the full control effect; compound concentration not given in the record
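Steps: dispense buffer (Tris pH 8.0, NaCl 300 mM, TCEP 1 mM, BSA, Tween 20); add 5X protein mix (GST-E1A, His-CtBP, 125 nM each); pin 23 nL compound; 2 h at 37 °C, dark; add 5X beads (50 ug/mL); 1 h; read.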
D2 potentiator: Beta-Arrestin HTS for Positive Allosteric Modulators of the Human D2 Dopamine Receptor: Potentiators | DiscoveRx D2 beta-arrestin cells, luminescence, 90 min; 100% = 57 uM dopamine signal | potentiation, % (test concentration not listed) | actives 0.23% (n = 360,000) | AID 624464, 2012; active = potentiation of 50% or more; inconclusive = 30% to 50%; inactive = 30% or less;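 also: compound concentration not given in the record; tested on top of an EC20 dose of dopamine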
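PathHunter beta-arrestin assay in DiscoveRx D2 cells. Compounds were added with an EC20 of dopamine (50 nM final) for 90 min at 37 deg C. Luminescence was read 1 h after detection reagent, with 57 uM dopamine as the EC100 control.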
gsp antag: qHTS for Antagonists of gsp, the Etiologic Mutation Responsible for Fibrous Dysplasia/McCune-Albright Syndrome: qHTS; AID 624288, 2012; gsp-mutant cells, cAMP HTRF, 30 min; control for the full effect not named in the record; Potency, µM (highest dose often 76.9 µM), inactives show at the highest dose activity change, negative = inhibition, actives largely listed as inhibitors; actives 0.4% (n = 340,000); active = falling curve of any shape with a large fitted effect; inconclusive = falling curve, mostly with a smaller effect; inactive = flat or rising curve; cell line not stated here;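 also: intracellular cAMP measured with PDE inhibitor Ro 20-1724 present during compound exposure; potency is read from the fitted curve at half-maximal effect; % is scaled to controls: 0 for no effect and ±100 for the full control effect; nearly all actives have a fitted effect of over 65% in size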
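Measurement of cellular cAMP by homogeneous time-resolved fluorescence following a 30 min compound exposure at 37C. The PDE inhibitor […] was present throughout; the assay buffer was DPBS with 0.05% BSA and 0.005% Tween 20.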
* = called active by the depositor; ? = inconclusive; . = not tested or not shown; [ ] = another dose, or the depositor's remark. Hits appear at their usual frequency, and some 1.4% of all compounds hit somewhere here.

SMILES	gsp agonist	D2 agonist	Six1-Eya2 inh	CtBP-E1A blk	D2 potentiator	gsp antag
COc1ccc(CNc2oc(-c3ccccc3)nc2C#N)cc1	5%	-3.1	-11	-25	-3	5%
COc1ccc(C(C(=O)NC2CCCC2)N(C(=O)c2ccco2)c2cc3c(cc2C(C)=O)OCO3)cc1 (stereo not drawn)	9%[15.4 µM]	-2.7	5	1	-5	-10%
COc1cccc(CN2C(=O)N(C(C)C)C(N(O)C(=O)NC(C)C)C2(C)C)c1OC (stereo not drawn)	2%	0.8	4	12	?	6%
COc1ccc(S(=O)(=O)N2CCC(C(=O)Nc3cccc(Cl)c3)CC2)cc1OC	-11%	3.6	-9	-9	-15	?
Cc1cnc(C(=O)N2CCCC(N3CCN(c4cccc(C(F)(F)F)c4)CC3)C2)cn1 (stereo not drawn)	-44%[inhibitor]	4.3	-2	4	-7	-10%
CCc1ccccc1S(=O)(=O)Cc1ccc(C(=O)NCc2cccs2)o1	2%	1.5	0	.	-3	-2%
Cc1cccc(N(C(=O)c2snc(C(N)=O)c2N)C(C(=O)NC2CCCC2)c2ccc(C)o2)c1 (stereo not drawn)	17%	-4.3	29	4	-5	-11%
CC(=O)NC(C)(C)C1CC=C(C)/C(=N\O)C1 (stereo not drawn)	-25%	-2.5	7	1	-2	7%
Cc1ccc(C(=O)NNC(=O)CCC(=O)Nc2cccc(Cl)c2C)cc1	7%	-1.2	0	1	-11	-8%
COc1ccc(NC(=O)c2oc3ccccc3c2NC(=O)c2ccco2)c(OC)c1	?	1.3	7	8	-2	-13%
CC(=O)N[C@H]1[C@H]([C@H](O)[C@H](O)CO)O[C@](O)(C(=O)O)C[C@@H]1O	.	-1.4	4	-22	-9	-4%
COc1ccc(C(=O)O)cc1S(=O)(=O)Nc1ccccc1-c1ccccc1	22%	-4.2	3	-1	-2	-14%
CC(C)c1ccc2[nH]c3c(c2c1)CCC/C3=N\NC(=O)c1ccncc1	-19%[15.4 µM]	1.7	-26	-3	11	?
Cc1ccc(OCC(=O)N2CCN(S(=O)(=O)c3ccccc3[N+](=O)[O-])CC2)cc1	8%[15.4 µM]	1.6	-2	.	-5	6%
CC(C)(C)c1ccc(C(=O)NNC(=S)NC(=O)c2cccnc2)cc1	-20%	-3.9	0	-1	-10	5%
CCOC(=O)c1ccccc1NC(=O)Cn1cnc2c(oc3ccccc32)c1=O	0%	-0.9	2	4	17	5%
CN(C(=O)CN1C(=O)CCSc2ccc(S(=O)(=O)N3CCCC3)cc21)c1ccccc1	?	1.8	0	0	-16	-24%
COc1ccc(NC(=O)CN2CCC3(O)CCCCC3C2c2cc(OC)ccc2OC)cc1 (stereo not drawn)	-25%	-0.3	-5	-1	2	0%
O=C(CSCc1ccc(F)cc1)N1CCOCC1	17%	0.2	-1	3	-7	7%
CC(=O)NC1C(=O)N=C(SCC(=O)NC2CCCCC2)NC1=O (stereo not drawn)	16%	0.8	6	11	-8	0%
O=C(NC1c2ccccc2-c2ccccc21)N1CCOCC1	-6%	-0.8	-1	9	1	10%
CCCOc1ccc(-c2nnn(CC(=O)N3CCCCC3)n2)cc1	-27%	-2.6	12	.	-7	4%
COc1ccccc1N1C(=O)c2cccnc2C1=O	2%	-7.0	-4	.	22	2%
CC(C)C(C(=O)Nc1ccccc1F)N1C(=O)c2ccccc2C1=O (stereo not drawn)	0%	2.4	2	-2	0	6%
Cc1ccc(S(=O)(=O)N2CCC(=O)N(CCO)CC2)cc1	0%	-5.4	-1	3	-2	11%
O=C(OCCN=C1NS(=O)(=O)c2ccccc21)c1cccnc1	15%[15.4 µM]	-4.6	6	3	-6	8%
CC1CCCCN1S(=O)(=O)c1ccc(C(=O)N(CCCN(C)C)c2nc3ccc(Br)cc3s2)cc1 (stereo not drawn)	-12%	2.1	?	?	-18	11%
Cc1ccc(Cn2ncc3c(NN)ncnc32)cc1	3%[15.4 µM]	-1.3	-23	1	-5	3%
O=C(NCc1ccccn1)c1cccc(S(=O)(=O)Nc2ccccc2Cl)c1	1%	0.6	-1	-10	-2	6%
O=C(CCNc1ccccc1)c1cccc([N+](=O)[O-])c1	-17%	-0.4	-13	-16	-7	4%
Cc1cc(=O)c(C(=O)O)nn1-c1ccccc1[N+](=O)[O-]	-1%[15.4 µM]	1.3	3	-2	-4	12%
Cc1oc(-c2cccs2)nc1CS(=O)CC(=O)NCc1ccc2c(c1)OCO2 (stereo not drawn)	12%[15.4 µM]	-0.5	5	-2	-2	-2%
COc1ccc(-c2nc(CSCC(=O)N3CCN(C4CCCCC4)CC3)c(C)o2)cc1OC	12%	-1.4	3	0	-7	5%
Cc1cc(C)c(S(=O)(=O)n2cc(C(C)C(N)C(=O)O)c3ccccc32)c(C)c1 (stereo not drawn)	.	-1.9	-3	-1	-2	2%
CCN(CC)C(=S)Nc1ccc([N+](=O)[O-])cc1	20%	-5.4	-1	1	-15	10%
COc1cccc(-c2cc3onc(-c4ccccc4)c3c(=O)n2C)c1	.	-1.7	5	4	-3	-1%
CC(C)(C)C(=O)NC(=S)NCc1ccccc1	0%	-2.7	4	-11	-15	-1%
O=C(Cc1ccc([N+](=O)[O-])cc1)N1N=C2CCCCC2C1(O)C(F)(F)F (stereo not drawn)	-6%[15.4 µM]	-3.7	0	-1	-5	10%
CS(=O)(=O)c1ccc(-c2sc3ccccc3c2C(=O)NCCCN2CCOCC2)cc1	.	-0.8	6	-12	.	1%
CCn1cc(C(=O)N(C)c2cc(C)ccc2OC)c2cc(OC)c(OC)cc2c1=O	1%	3.6	-2	-3	-2	2%
O=C(CN1C(=O)NC2(CCCCC2)C1=O)N1CCN(S(=O)(=O)c2ccccc2)CC1	?	-2.3	5	11	1	9%
Cn1nc2c(c1C(=O)N1CCCC(C(=O)c3cc(F)ccc3F)C1)CCCC2 (stereo not drawn)	25%	-1.3	2	-23	-2	-4%
Cc1ccc(S(=O)c2ccc([N+](=O)[O-])c3nonc23)cc1 (stereo not drawn)	47%	?	-30	-5	-18	.
CCN(c1ccccc1)S(=O)(=O)c1ccc2c(c1)OCCO2	-23%	1.2	6	1	-3	-3%
CN(C(=O)CN1C(=O)c2ccccc2S1(=O)=O)c1ccccc1C(=O)O	4%	-3.2	3	5	-7	10%

Pulled by structure from the list above:
SMILES	gsp agonist	D2 agonist	Six1-Eya2 inh	CtBP-E1A blk	D2 potentiator	gsp antag
Cn1nc2c(c1C(=O)N1CCCC(C(=O)c3cc(F)ccc3F)C1)CCCC2 (stereo not drawn)	25%	-1.3	2	-23	-2	-4%
COc1cccc(-c2cc3onc(-c4ccccc4)c3c(=O)n2C)c1	.	-1.7	5	4	-3	-1%
CCn1cc(C(=O)N(C)c2cc(C)ccc2OC)c2cc(OC)c(OC)cc2c1=O	1%	3.6	-2	-3	-2	2%
Cc1cc(C)c(S(=O)(=O)n2cc(C(C)C(N)C(=O)O)c3ccccc32)c(C)c1 (stereo not drawn)	.	-1.9	-3	-1	-2	2%
CS(=O)(=O)c1ccc(-c2sc3ccccc3c2C(=O)NCCCN2CCOCC2)cc1	.	-0.8	6	-12	.	1%

Next records follow.
SMILES	gsp agonist	D2 agonist	Six1-Eya2 inh	CtBP-E1A blk	D2 potentiator	gsp antag
Cc1nnc2c(N3CCN(C(=O)c4ccco4)CC3)nc3ccccc3n12	?	1.0	0	3	0	5%
COc1cccc(CN2CCN(C(=O)CC(C)C)CC2)c1	-10%	3.1	5	6	12	-7%
Cc1nc2nc(COc3ccccc3)[nH]n2c(=O)c1C	-3%	0.3	0	0	3	?
CC1CCCC(C)N1C(=O)CSc1nnc(-c2c[nH]c3ccccc23)o1 (stereo not drawn)	-29%	3.9	-6	-2	3	-1%
CCOC(=O)c1cc(CC)sc1NC(=O)COC(=O)c1ccccn1	1%[15.4 µM]	3.2	13	2	7	-22%
O=C(O)CCC(=O)N1CCN(c2cccc(Cl)c2)CC1	2%	-0.7	9	3	-19	15%
COc1ccc(CN2CCCC(C(=O)N3CCCC3)C2)c(OC)c1OC (stereo not drawn)	.	-5.0	-6	0	-9	.
CCOC(=O)c1c(CC(C)C)csc1NC(=O)CCl	5%	-2.3	3	5	-3	4%
CC(C)C(=O)NCc1cc(-c2ccc(Cl)cc2)no1	17%	-1.6	-6	-3	-8	7%
O=C(C1CCCN(S(=O)(=O)c2ccc(F)cc2)C1)N1CCCC1 (stereo not drawn)	?	0.0	7	-2	-16	10%
O=C(NCc1ccncc1)c1ccc(NS(=O)(=O)c2ccc(F)cc2)cc1	-66%[inhibitor]	0.9	8	.	-8	-8%
CCc1cc2c(-c3ccccc3)cc(=O)oc2cc1OCC(C)=O	-4%[15.4 µM]	-5.0	0	-15	-8	-6%
Cc1ccc(P(=O)(CC(=O)O)c2ccc(C)cc2)cc1	9%	0.2	6	2	9	5%
C=Cn1cc[n+](CC(=O)C(C)(C)C)c1	-15%	-1.4	3	3	-2	5%
CSc1ccccc1C(=O)OCC(=O)N1CCN(C(C)=O)CC1	-33%[inhibitor]	0.8	2	4	0	10%
COc1cccc(CNC(=O)C23CN(Cc4ccccc4)CC2C(c2ccc([N+](=O)[O-])cc2)=NO3)c1 (stereo not drawn)	11%	-2.1	-24	-27	-7	-1%
COc1ccccc1CNS(=O)(=O)c1ccc2c(c1)oc(=O)n2C	-24%	1.6	2	9	0	13%
O=C(c1ccc2ccccc2c1)N1CCN(c2ccccn2)CC1	-3%[15.4 µM]	1.2	0	-8	-1	2%
CCOC(=O)c1sc2nc(C)nc(NC3CCC(O)CC3)c2c1C (stereo not drawn)	-6%	-5.4	6	-2	-2	-7%
Cc1ccc(CN2CCN(Cc3c[nH]c4ccccc34)CC2CCO)o1 (stereo not drawn)	13%[15.4 µM]	-2.2	3	11	-19	8%
CCCN1CCC(=O)N([C@H](CSc2ccc(C)cc2)Cc2ccccc2)CC1	.	-3.8	-15	-18	-21	-8%
COc1ccc(C(=O)COC(=O)c2ccccn2)c(OC)c1	-4%	0.0	-10	-26	-3	0%
O=C1C=C(c2cccc(Cl)c2)C[C@@H](c2ccc3c(c2)OCO3)C1	?	-2.0	-16	-2	0	-12%
CC1(C2CC2)NC(=O)N(CC(=O)Nc2cc(S(=O)(=O)N3CCCCC3)ccc2Cl)C1=O (stereo not drawn)	13%	1.8	-1	0	-4	1%

Screening data from PubChem.
